Screening data as filed in PubChem BioAssay.
Menin MLL FP FL: menin-MLL binding inhibition, fluorescein peptide | 290,000 tested, under 10 active | FP activity change, % at 61.4 µM | Fluorescence polarization, fluorescein-MLL peptide displacement from menin; inconclusive = falling polarisation curve, or a change in total fluorescence; inactive = total fluorescence flat and polarisation flat or rising; no compound was filed as active; the % refers to the polarisation; negative = inhibition;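 further: % of control where 0% means no effect; inhibitors lower the polarisation; unlabelled MLL peptide was the positive control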
ClpP mod: qHTS Assay for Activators of ClpP. ATP-dependent Clp protease proteolytic subunit (Bacillus subtilis (strain 168)), P80244. purified B. subtilis ClpP, FRET peptide cleavage, 20 min. Potency, µM (top dose mostly 57.5 µM), inactives show at the highest dose activity change, negative = active. actives 1.9% (n = 340,000). AID 651965, 2013; active = well fitted falling curve with a large enough effect; inconclusive = small, poorly fitted or top-dose-only effect; inactive = no such curve, though single readings can be large or run the other way; further: potency means the concentration at half of the fitted maximal effect; the source files actives as falling curves though it sought activators and does not explain the sign; nearly all actives have a fitted effect of over 65% in size; many hits overshoot -100%
Target sequence (P80244 whole entry, looked up): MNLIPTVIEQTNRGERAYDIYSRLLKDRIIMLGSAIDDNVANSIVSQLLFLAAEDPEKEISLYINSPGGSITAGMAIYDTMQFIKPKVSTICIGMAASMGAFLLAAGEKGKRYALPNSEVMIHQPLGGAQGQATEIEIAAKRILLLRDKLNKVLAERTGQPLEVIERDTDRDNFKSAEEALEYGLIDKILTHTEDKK
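Purified B. subtilis ClpP, 10 microg/mL final in Tris/HCl pH8 with KCl, BSA, glycerol and Tween-20, cleaved an Abz/nitrotyrosine-quenched decapeptide. Fluorescence (ex 320, em 430) was read at 0 and 20 min at room temperature. Delta was normalized to 5.8 microM ADEP and DMSO/no-enzyme controls.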
D2 agonist: activates the human D2 dopamine receptor; actives 0.084% (n = 360,000); activation, % (test concentration not listed); DiscoveRx PathHunter D2 beta-arrestin, luminescence, 90 min; 100% = 57 uM dopamine signal; P14416; in the data active = activation above about 40%; inconclusive = about 15% to 40%; inactive = below about 15%; further: compound concentration not given in the record; the text of the record calls up to 30% inactive
Target sequence (P14416 whole entry, looked up): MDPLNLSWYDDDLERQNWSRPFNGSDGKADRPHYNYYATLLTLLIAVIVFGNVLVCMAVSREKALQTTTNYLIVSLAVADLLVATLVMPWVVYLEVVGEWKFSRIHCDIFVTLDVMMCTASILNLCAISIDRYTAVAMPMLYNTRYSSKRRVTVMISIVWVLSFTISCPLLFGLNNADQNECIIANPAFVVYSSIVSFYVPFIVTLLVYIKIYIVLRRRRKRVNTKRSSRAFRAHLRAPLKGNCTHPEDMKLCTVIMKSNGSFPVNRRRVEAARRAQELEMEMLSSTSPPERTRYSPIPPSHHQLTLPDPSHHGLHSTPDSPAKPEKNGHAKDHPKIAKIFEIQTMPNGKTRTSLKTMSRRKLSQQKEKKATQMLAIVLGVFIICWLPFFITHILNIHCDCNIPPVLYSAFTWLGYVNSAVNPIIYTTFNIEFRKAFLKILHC
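Agonist mode: compounds alone added to overnight-plated D2 PathHunter cells for 90 min at 37 C, with 57 uM final dopamine (EC100) defining full response. Beta-arrestin recruitment detected by chemiluminescent reagent, read after 1 h at ambient temperature.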
gsp antag: gsp mutant antagonism; actives 0.4% (n = 340,000); gsp-mutant cells, cAMP HTRF, 30 min; control for the full effect not named in the record; Potency, µM (titrated, usually from 76.9 µM), inactives show at the top dose activity change, negative = inhibition, hits mostly inhibitors; active = falling curve of any shape with a large fitted effect; inconclusive = falling curve, mostly with a smaller effect; inactive = flat or rising curve; cell line not stated here;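 further: intracellular cAMP measured with PDE inhibitor Ro 20-1724 present during compound exposure; potency means the concentration at half of the fitted maximal effect; on the % scale 0 is the no-effect control and ±100 the full control effect; nearly all actives have a fitted effect of over 65% in size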
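Cells, 2000/well, grown 16–24 h in DMEM 10% FBS with 0.5 mg/ml G418, then compounds plus […] (300 uM addition stock), 30 min at 37C. cAMP read by HTRF (cAMP-d2 and anti-cAMP antibody-K in lysis buffer) after 30 min RT.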
PINK1 modulator: changes PINK1 expression. Potency, µM (titrated, usually from 76.6 µM), for inactives: top-dose activation (PINK1 increase), actives largely listed as activators. PINK1 immunofluorescence, high-content cytometry, 24 h. actives 0.2% (n = 410,000). AID 624263; active = well fitted activation curve with a large enough effect; inconclusive = small, poorly fitted or top-dose-only effect; inactive = flat fitted curve, though single readings scatter; cell line not stated here;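 further: potency means the concentration at half of the fitted maximal effect; % of control where 0% means no effect; nearly all actives have a fitted effect of over 65% in size; a mitochondrial uncoupler was the plate control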
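PINK1 protein, normally rapidly degraded, was detected by immunofluorescence after 24 hour compound treatment of a stable cell line. Titration data (5 concentrations) came from laser-scanning cytometry, with CCCP-treated wells as controls.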
gsp agonist: activates gsp, the McCune-Albright syndrome mutation; AID 624287; gsp mutant cells, cAMP HTRF, 30 min; control for the full effect not named in the record; Potency, µM (doses to about 76.9 µM), for inactives: at the top dose activation (cAMP increase), usual class: activators; actives 0.13% (n = 340,000); active = well fitted activation curve with a large enough effect; inconclusive = small, poorly fitted or top-dose-only effect, or another doubt; inactive = no such curve, though single readings can be large or run the other way; cell line not stated here;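 further: phosphodiesterase inhibitor Ro 20-1724 added with compounds to block cAMP breakdown; potency means the concentration at half of the fitted maximal effect; nearly all actives have a fitted effect of over 60% in size; about a fifth of the inactives were tested at one dose only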
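Cells stably selected in G418 were plated at 2000/well, grown 16-24 hr, then given compounds in DMSO with the PDE inhibitor […] (300 uM solution added) for 30 min at 37C; cAMP was read by HTRF.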
Sfp PPTase inh: inhibitors of Bacillus subtilis Sfp phosphopantetheinyl transferase | Biochemical Sfp PPTase activity, qHTS | AID 1490 | Potency, µM, for inactives: max response, negative = inhibition, hits mostly inhibitors | Q9F4F7 | actives 3.5% (n = 310,000); active means well fitted inhibition curve with a large enough effect; inconclusive means small, poorly fitted or top-dose-only effect, or another doubt; inactive means no such curve, though single readings can be large or run the other way;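 further: the enzyme is Sfp with the accession as filed and its product quenches rhodamine fluorescence; potency means the concentration at half of the fitted maximal effect; 0% = enzyme reaction without inhibitor and -100% = no enzyme wells; top concentration of the series not given in the record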
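Step 1, compound plus 15 nM Sfp-PPTase, 15 min, room temperature. Step 2, add rhodamine-CoA (5 uM) and BHQ-2-YbbR (12.5 uM). Step 3, read 525/598 nm fluorescence at 0 and 30 min.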
* hit, by the source's call; u = inconclusive; x = no result given; & = joins results of further samples; [ ] = dose if it differs, or a comment.

Compound,Menin MLL FP FL,ClpP mod,D2 agonist,gsp antag,PINK1 modulator,gsp agonist,Sfp PPTase inh
N#CCc1c(C#N)c(N)nc(N2CCN(S(=O)(=O)c3ccccc3)CC2)c1C#N,4.1,u,1.8,-3.8%,0.6%,-0.6%,-1.4%
COC(=O)N1CCC2(CC1)CN(C(=O)Nc1cccc(C#N)c1)C2,-0.1,x,x,x,0.1%,x,9.8%
COC(=O)C1=C(C)N(Cc2ccco2)C(=O)N[C@H]1c1cccc(C(F)(F)F)c1,-4.2&-0.3,1.0%,2.3,2.6%,1.8%,-42.7%[inhibitor],7.2%&-17.4%
COc1ccc(N(C)S(=O)(=O)c2cccc(C(=O)NCc3ccc4c(c3)OCO4)c2)cc1,0.1,x,1.3,-13.0%,-2.6%,-3.4%,4.4%
O=C(CSc1nnc2c3ccccc3c3ccccc3c2n1)Nc1ccccc1F,4.9,-4.2%,1.1,-24.2%,u,-4.1%,-63.2%
C/C(O)=C(\C#N)c1nc2ccccc2[nH]1,1.4,0.2%,-4.4,-6.6%,2.2%,7.0%,2.7%
O=C(O)c1ccc(NC(CSCc2ccc(F)cc2)C(=O)O)c([N+](=O)[O-])c1 (centres undefined),0.2,-2.1%,-3.4,0.6%,0.9%[38.3 µM],-44.8%[inhibitor],19.6%
C#CCOCCOCCOCCNc1nc(N2CCN(C(=O)[C@H]([C@@H](C)CC)n3cc(CCCN=C(N)N)nn3)CC2)nc(N2CCN(C(=O)[C@H](CCCCN)n3cc(CCC(=O)O)nn3)CC2)n1,0.0,-0.8%,0.9,12.5%,0.4%,-20.2%,3.3%
CC(=O)N1CCN(c2ccccc2NC(=S)NC(=O)c2cc3ccccc3o2)CC1,x,0.2%,-2.7,u,2.0%,0.4%,7.2%
CCOC(=O)CNC(=O)c1sc2nc(C)cc(C)c2c1N,0.0,-25.5%,-2.5,12.8%,-0.4%,10.4%,7.3%
CCCCN(C)C(=O)C1CCN(c2ccc(S(=O)(=O)N3CCOCC3)cc2[N+](=O)[O-])CC1,x,1.2%,-5.3,5.2%,2.6%,-13.3%,x
Cn1cnc(S(=O)(=O)N2CCCCC2c2cc(C(=O)Nc3cccc4c3CCCC4)no2)c1 (centres undefined),x,0.8%,-1.1,x,-0.1%,x,x
Fc1ccc(CNCc2ccc(Br)cc2)cc1,-2.0,-2.0%,-2.0,8.2%,5.0%,-27.6%,9.3%
N#Cc1ccccc1NCC(=O)N1CCN(S(=O)(=O)c2ccccc2)CC1,x,-29.3%,-3.9,-8.1%,3.4%,-21.9%,x
COc1ccc(C(=O)C2CCN(CC(=O)Nc3cc(C)cc(C)c3)CC2)cc1,-2.3,x,-7.8,-28.9%,1.7%,-6.8%,-10.0%
CC/C(C)=N/NC(=S)NCc1ccco1,-2.8,1.5%,-4.2,6.2%,5.0%,-5.6%,-6.0%
N#Cc1ccc(-c2cccnc2)nc1SCC(N)=O,-4.4,3.8%,-1.8,-3.4%,2.4%,-24.5%,5.7%
O=C(CSc1c2c(nc3ccccc13)CCC2)N1CCCC1,1.6,x,0.5,-1.1%,0.5%,u,10.9%
COCCN1Cc2cccc(C(=O)Nc3cc(C)cc(C)c3)c2C1=O,0.6,-23.3%,-4.6,-12.7%,0.9%,-38.3%[inhibitor],-2.4%
Cc1nn(-c2ccccc2)nc1CNC(=O)C1CCC1,-1.0,-21.8%,-3.7,11.1%,2.1%,-2.5%,16.3%
CC1Oc2ccccc2N(Cc2cccc(F)c2)C1=O (centres undefined),u,-2.4%,3.6,0.0%,3.9%,-35.7%,3.6%
O=C(CCn1c(=S)oc2ccccc21)NC1CCCCCCC1,1.3,-3.6%,-2.7,13.8%,7.4%,u,-2.8%
COc1cccc(NC(=S)N2C3CCCC2CC(NC(=O)C2CC2)C3)c1 (centres undefined),-2.6,x,-3.9,-0.3%,0.8%,9.7%[15.4 µM],-5.6%
C=CCN(CC=C)C(=O)C1CCN(S(=O)(=O)c2ccc(-n3cnnn3)cc2)CC1,x,-1.4%,-4.0,8.1%,1.4%,-1.7%[15.4 µM],15.6%
Cc1ccc2nc(C)c(C(=O)N/N=C/c3cccs3)cc2c1,12.9,-0.5%,0.2,16.9%,6.6%,1.4%,-8.4%
O=C(CSc1nnc(CNC(=O)c2ccc(F)cc2)o1)c1ccccc1,x,2.0%,-3.3,-17.6%,-0.2%,-10.6%[15.4 µM],22.0%
NC(=O)c1ccc(-n2nnnc2SCC(=O)Nc2ccc(F)cc2)cc1,-0.2,0.7%,-1.4,-1.7%,5.7%,-13.4%[15.4 µM],15.1%
CC(C)CCNC(=O)C1(C)CCN1Cc1ccc(-c2ccccn2)cc1 (centres undefined),x,1.6%,3.1,x,3.6%,x,x
Cc1nc2c(o1)C(=O)c1ccccc1C2=Nc1ccccc1,x,-14.9%,u,10.5%,-1.7%,-20.1%,x
CCc1cc(C(=O)OC)c(NC(=O)CCC(=O)O)s1,1.6,-5.9%,-3.1,-7.2%,-0.6%,-13.9%,20µM*

Some of the entries so far, field by field:
> COc1ccc(C(=O)C2CCN(CC(=O)Nc3cc(C)cc(C)c3)CC2)cc1
  Menin MLL FP FL: -2.3	ClpP mod: x	D2 agonist: -7.8	gsp antag: -28.9%	PINK1 modulator: 1.7%	gsp agonist: -6.8%	Sfp PPTase inh: -10.0%
> C/C(O)=C(\C#N)c1nc2ccccc2[nH]1
  Menin MLL FP FL: 1.4	ClpP mod: 0.2%	D2 agonist: -4.4	gsp antag: -6.6%	PINK1 modulator: 2.2%	gsp agonist: 7.0%	Sfp PPTase inh: 2.7%
> COc1ccc(N(C)S(=O)(=O)c2cccc(C(=O)NCc3ccc4c(c3)OCO4)c2)cc1
  Menin MLL FP FL: 0.1	ClpP mod: x	D2 agonist: 1.3	gsp antag: -13.0%	PINK1 modulator: -2.6%	gsp agonist: -3.4%	Sfp PPTase inh: 4.4%
> Cc1nn(-c2ccccc2)nc1CNC(=O)C1CCC1
  Menin MLL FP FL: -1.0	ClpP mod: -21.8%	D2 agonist: -3.7	gsp antag: 11.1%	PINK1 modulator: 2.1%	gsp agonist: -2.5%	Sfp PPTase inh: 16.3%

The listing continues.
Compound,Menin MLL FP FL,ClpP mod,D2 agonist,gsp antag,PINK1 modulator,gsp agonist,Sfp PPTase inh
c1cc(N2CCCCC2)nc(N2CCCCC2)n1,x,x,1.6,4.3%,6.6%,10.0%,x
Cc1cn([C@H]2C[C@H](O)[C@@H](/C=C/C(=O)NCCC(C)C)O2)c(=O)[nH]c1=O,x,-1.3%,-3.7,x,1.4%,x,x
COCCSc1nnc(NC(=O)C2CC(=O)N(CCc3ccc(F)cc3)C2)s1 (centres undefined),1.9,x,0.2,-6.1%,1.6%,u,8.2%
CC(C)(C)/C(O)=C/c1nc2cc(Cl)ccc2oc1=O,-6.3,x,8.8,-8.2%,0.2%,-53.4%[inhibitor],u
COc1cc(Cl)c(C)cc1NC(=O)CN1C(=O)C2CCCCC2C1=O (centres undefined),x,0.5%,-1.7,6.6%,-0.2%,-21.8%,x
COC(=O)c1ccccc1NC(=O)CC(=O)Nc1ccccc1C(=O)OC,2.5,u,-2.4,6.3%,1.4%,-26.7%,5.2%
O=C(Nc1nc2c(Br)cc(Br)cc2c(=O)s1)c1ccco1,-29.9,x,-0.9,5.1%,3.9%,111.3%[15.4 µM],-19.1%
O=C(CNC(=O)c1cc(Cl)nc2ccccc12)Nc1ccccc1Br,x,-26.5%,-3.1,5.9%,-0.3%,10.3%,x
CC(NC(=O)c1ccco1)c1ccc2c(c1)OCCO2 (centres undefined),-1.7,1.6%,0.2,11.9%,-0.1%,-17.9%,7.4%
C[C@H](CO)N1C[C@H](C)[C@@H](CN(C)S(=O)(=O)c2ccc(F)cc2)Oc2c(NC(=O)Nc3ccc(C(F)(F)F)cc3)cccc2C1=O,x,1.0%,1.4,-19.2%,u,x,x
COc1ccc(NC(=O)Nc2ccc(F)cc2F)c(C)c1,-4.8,1.4%,-3.0,2.9%,3.0%[38.3 µM],4.8%,-10.6%
COc1ccccc1C(=O)Nc1ccc2c(c1)nc(CN1CCCCC1)n2C,0.1,-4.5%&-9.9%,-1.0,12.1%,2.4%&0.1%,u,8.1%
O=c1[nH]cnc2scc(-c3ccc(F)cc3)c12,1.9,-2.9%,-0.6,-0.2%,-0.2%,-9.4%,15.3%
CCOC(=O)C1=C(CC)OC(N)=C(C#N)C1c1ccc(F)cc1F (centres undefined),-0.4,x,-1.5,-18.4%,9.1%,-37.9%[15.4 µM],22.9%
CCSc1nnc(CCNS(=O)(=O)c2ccc(C(C)=O)cc2)n1C,4.9,x,0.0,-4.1%,-0.1%,8.4%[15.4 µM],0.3%
CC(=O)c1cc(OC(=O)c2ccncc2)ccc1OC(=O)c1ccncc1,-2.4,0.2%,1.8,2.8%,-0.1%,24.1%,7.7%
O=C1Nc2ccc([N+](=O)[O-])cc2C1=Nc1cccc(CO)c1,-0.4,x,-0.8,1.1%,2.1%,-1.1%[15.4 µM],7.1%
O=C(NCCCNC(=O)C(F)(F)C(F)F)C(F)(F)C(F)F,0.7,0.5%,-1.9,-0.7%,0.1%,-2.3%,5.2%
Cc1nc(CS(=O)(=O)c2ccccn2)sc1C(=O)NNC(=O)c1c(F)cccc1Cl,3.0,0.3%,0.6,8.4%,0.0%,-5.8%[15.4 µM],-0.9%
Cc1cccc(C(=O)N/N=C/C(C)Cc2ccc3c(c2)OCO3)c1 (centres undefined),-0.5,0.1%,-6.1,-23.6%,0.6%,-4.7%[15.4 µM],10.6%
O=C(NCCCc1ccccc1)c1ccc(CS(=O)Cc2ccc(Cl)cc2)o1 (centres undefined),x,-1.6%,-0.8,4.2%,0.1%,-20.0%,12.4%
